AID504770 = growth inhibitors of E. coli YBA685 in a screen for V. cholerae RctB (chromosome II replication) inhibitors; E. coli YBA685 rctB-dependent plasmid, OD600 growth, 3 h; hits give low values; z-score (concentration not given with the values); hit rate 0.27% among 130,000; AID 504770;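 active means z-score under -2 on both plates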;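 further: wells of about 30 µL received 100 nL stock; score is relative to mean and SD of the test wells; the first replicate is given; strong numbers were not always called active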
Ba CapD inh = CapD enzyme inhibition; purified CapD enzyme, fluorescence intensity read-out; hits give low values; some hits fall short of the stated cut; z-score (test concentration not listed); hit rate 0.23% among 140,000; AID 492967;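 active means z-score under -4 in either of two replicates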;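 further: stock transfer was 100 nL into about 40 µL; score is relative to mean and spread of the plate; one replicate is shown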
Numbers without * were called inactive; x = not tested or not shown.

canonical_smiles | AID504770 | Ba CapD inh
N#CCOc1ccc(Br)cc1 | 0.8 | -0.27
NC(=O)C1CCN(C(=O)CN2CCc3ccccc3C2)CC1 | -0.2 | x
CCOC(=O)N1CCN(S(=O)(=O)c2ccc(C(=O)Nc3cc(C)on3)cc2)CC1 | 1.6 | x
Cc1ccc(C(C)(C)C)c(OCCOCCN2CCCC2)c1 | 0.15 | 0.11
O=C(NCc1ccco1)c1ccc(-c2ccccc2Cl)o1 | 0.75 | 0.83
CCOC(=O)N1CCN(C(=O)c2cn(CC(C)C)c(=O)c3c2c2ccccc2n3C)CC1 | -0.5 | 50
Cc1cccc2cnn(CC(=O)N3CCc4ccccc4C3)c12 | -0.35 | 0.69
Cc1ccc(-c2nc3ccc(NCc4cccs4)cc3o2)cc1 | 1.3 | 18
O=c1c2c3c(sc2nc2ccc(NCc4ccco4)nn12)CCCC3 | -0.8 | x
Cc1ccccc1C(=O)Nc1cccc(OC(C)C)c1 | x | -0.57
CC(C)C12CN3CC(C(C)C)(CN(C1)C3c1cccc(Br)c1)C2=O (centres undefined) | x | 0.005
O=C(NCCc1ccccc1)c1c[nH]c2ccc(S(=O)(=O)N3CCOCC3)cc2c1=O | -0.85 | 0.39
CCOc1cc(C2C(C(=O)OC)=C(C)NC3=C2C(=O)CC(c2ccc(OC)cc2)C3)cc(Br)c1O (centres undefined) | x | 10
Oc1ccc(Cl)c2cccnc12 | 0.35 | -0.31
CCN(CC)C(=O)Oc1ccc(Br)cc1C(=O)Nc1ccc(F)c(Cl)c1 | 1.1 | 0.8

canonical_smiles | AID504770 | Ba CapD inh
CNC(=O)c1cc(S(=O)(=O)NC)ccc1C | -0.15 | -0.035
CCOc1cc(C2C(C(=O)OC)=CN(Cc3ccc(Cl)cc3)C=C2C(=O)OC)cc(Br)c1OC | x | 59
CN(C(=O)COc1ncnc2ccccc12)C1CCCCC1 | 0.9 | 0.36
CC(=O)NCc1ccc(C(=O)CSc2nnc(-c3ccc4c(c3)OCO4)n2-c2ccccc2)o1 | 0.3 | x
Cc1cc(C(=O)Nc2nc(-c3ccccc3)c(-c3ccccc3)s2)no1 | -0.25 | 3.6
O=C(OCCN1C(=O)c2cccc3c(N4CCOCC4)ccc(c23)C1=O)c1cc([N+](=O)[O-])cc([N+](=O)[O-])c1 | x | 0.33
O=S1(=O)C=CC(NCc2ccccc2)C1 (centres undefined) | 1.1 | -0.81
Cc1ccc(/C=C/C(=O)OCC(=O)c2cc(C)c(C)cc2C)o1 | -0.15 | x
COc1cc(OC)c(CN2CCN(S(=O)(=O)c3ccc(Br)cc3)CC2)c(OC)c1 | x | 0.28
Cc1cc(C)c2c(-n3cccc3)c(C(=O)Oc3ccccc3)sc2n1 | -0.35 | -0.46
CCn1c(NC)nc2c1c(=O)n(C)c(=O)n2C | -0.75 | 0.35
CCCCc1cc(=O)oc2c(CN(C)C)c(O)ccc12 | -1.2 | 91
C=CCSc1nc(-c2ccccc2)c(C#N)c(=O)[nH]1 | -0.35 | 1.6
COc1cccc(CNC(=O)CC2=NS(=O)(=O)c3ccccc3N2)c1 | -0.1 | 0.28
COc1cc2ccccc2cc1C(=O)Nc1ccc(F)cc1F | 1.1 | -0.96

canonical_smiles | AID504770 | Ba CapD inh
COc1cccc2c(=O)n(CC(=O)N3CCOCC3)ccc12 | 0.2 | x
CCOC(=O)C1=C(C(=O)OCC)SC(=C2C(=S)C(C)(C)N(C(=O)COc3ccccc3)c3ccc(OC)cc32)S1 | x | -1.1
O=C(O)c1ccc(Nc2nnc(-c3c[nH]c4ccccc34)o2)cc1 | 1.9 | x
CC(=O)c1cc(C#N)c(=O)[nH]c1C | x | 0.8
CCN(c1ccc(NC(=O)c2cc(Cl)c3c(c2)OCCCO3)cc1)C(C)C | 0.45 | x
Cc1cc(C(=O)CN2C(=O)NC3(CCSc4ccc(F)cc43)C2=O)c(C)n1CC1CCCO1 (centres undefined) | 0.8 | x
C=C(C)CN1c2ccccc2Sc2ccccc21 | 0.3 | -0.4
O=C1CC(Nc2ccc(N3CCOCC3)cc2)C(=O)N1C1CCCCC1 (centres undefined) | 0.45 | -0.17
CC1CCCC(C)N1C(=O)COC(=O)c1cccnc1Cl (centres undefined) | 0.2 | 0.43
Cc1noc(C)c1C(=O)Sc1nccc(C(F)(F)F)n1 | -0.75 | -0.57
COc1ccc(-c2nc3scc(CCNS(=O)(=O)N(C)C)n3n2)cc1 | 0 | x
CCc1nn(CC(=O)N(C)C2CCCCC2)c(=O)c2cc3cc(C)ccc3n12 | 1.6 | 52
CCc1ccc(N2CC(C(=O)N3CCCC3)CC2=O)cc1 (centres undefined) | 0.45 | x
CC(Sc1nnc(CCNC(=O)c2ccccc2F)n1C)c1nc2ccccc2c(=O)[nH]1 (centres undefined) | -0.25 | x
CCOc1ccc(-n2c(=O)[nH]cc(C(=O)N3CCCc4ccccc43)c2=O)cc1 | -0.05 | -0.9

Four of the compounds above, with each value named.
CCN(c1ccc(NC(=O)c2cc(Cl)c3c(c2)OCCCO3)cc1)C(C)C
  AID504770 = 0.45; Ba CapD inh = x
Cc1cc(C(=O)CN2C(=O)NC3(CCSc4ccc(F)cc43)C2=O)c(C)n1CC1CCCO1 (centres undefined)
  AID504770 = 0.8; Ba CapD inh = x
C=C(C)CN1c2ccccc2Sc2ccccc21
  AID504770 = 0.3; Ba CapD inh = -0.4
O=C1CC(Nc2ccc(N3CCOCC3)cc2)C(=O)N1C1CCCCC1 (centres undefined)
  AID504770 = 0.45; Ba CapD inh = -0.17

(listing goes on)
canonical_smiles | AID504770 | Ba CapD inh
COc1ccc(OC)c(Nc2nc(-c3ccccc3O)nc3ccccc23)c1 | x | -0.14
Cn1c(=O)c2c(ncn2CC(O)COc2ccccc2)n(C)c1=O (centres undefined) | 0.8 | 0.95
O=C(Nc1cccc2ccccc12)OCCn1nnnc1CN1CCOCC1 | -0.2 | x
COc1ccc(CCNC(=O)C2OCCc3ccccc32)cc1OC (centres undefined) | -0.1 | -0.8
CCn1c2ccccc2c2cc(CN3CCN(C(=O)OCc4cc(C)cc(C)c4)CC3)ccc21 | x | 9.3
CN(C)C(CNS(=O)(=O)c1ccc2c(c1)OCCO2)c1ccco1 (centres undefined) | -1.4 | x
O=C(/C=C/c1ccco1)Nc1ccc(-c2nc3ccccc3[nH]2)cc1 | -0.2 | x
CCC(=O)c1c(OCC(N)=O)ccc2c(C)cc(=O)oc12 | 2.4 | -0.24
O=C(Nc1nccs1)c1ccc2c(c1)C(=O)N(CC1CCCO1)C2=O (centres undefined) | -1.1 | -0.74
Oc1c(Cl)cc(Cl)cc1/C=N/NCCc1ccccn1 | -0.3 | 2.2
COC(=O)c1ccccc1OCC#N | -0.85 | -0.29
CN=C1SC(CC(=O)NC)C(=O)N1C (centres undefined) | -0.2 | x
CCOC(=O)C1=C(C)NC2=C(C(=O)C(C(=O)OCC)C(c3cccc(OC)c3)C2)C1c1cccc(Br)c1 (centres undefined) | x | 7.4
O=C(CCCN1C(=O)c2ccccc2C1=O)NC1=NCCS1 | -0.5 | x
FC(F)(F)c1cccc(-n2cccc2)c1 | x | 0.54

canonical_smiles | AID504770 | Ba CapD inh
C[n+]1ccc(/C=C/c2ccc3c(c2)OCO3)c2ccccc21 | -0.2 | 3.4
CC1(C)Cc2cccc(C(=O)Nc3ccncc3)c2O1 | 0.7 | -0.02
O=C1/C(=C/c2ccccc2Br)Cc2ccccc21 | 0.55 | 12
O=C(O)c1c2c(nc3ccc(F)cc13)CCCC2 | 0.2 | x
CCc1nnc2c3c(-c4ccc(F)cc4)c(C)sc3ncn12 | 0.55 | 0.28
Cc1cc(C)[n+]2c(n1)SC(C)C2 (centres undefined) | 1.2 | -0.085
O=C(Cc1cccs1)NC1(C(=O)NC2CCCC2)CCCCC1 | 2.2 | -0.06
C/C(=C\C(=O)NN)NNc1ncnc2ccccc12 | 0.5 | x
c1ccc(OCc2nn[nH]n2)cc1 | -0.2 | x
COC(=O)c1cc2c(ccn2-c2ccc(F)cc2)n1CC(=O)c1ccc(OC)cc1 | 0.45 | x
CCn1c(=O)c2c(n3c(=S)[nH]nc13)-c1ccccc1CC21CCCCC1 | -0.05 | x
C(=N\n1cnnc1)/c1ccc2c(c1)OCO2 | -0.95 | 13
CC(=O)Nc1ccccc1N | 0 | -0.26
CCn1c(=O)cc(OCC(=O)NCc2ccc(OC)cc2OC)c2ccccc21 | 0.5 | 0.55
CCCCCC(=O)C1CCCCC1=O (centres undefined) | 0.3 | -0.055

Quoted at random: 4 compounds from above
canonical_smiles | AID504770 | Ba CapD inh
Cc1cc(C)[n+]2c(n1)SC(C)C2 (centres undefined) | 1.2 | -0.085
O=C(Cc1cccs1)NC1(C(=O)NC2CCCC2)CCCCC1 | 2.2 | -0.06
O=C(O)c1c2c(nc3ccc(F)cc13)CCCC2 | 0.2 | x
c1ccc(OCc2nn[nH]n2)cc1 | -0.2 | x

Full records, looked up by structure. Order of values: AID504770	Ba CapD inh
`C/C(=C\C(=O)NN)NNc1ncnc2ccccc12` reads 0.5	x
`O=C(Cc1cccs1)NC1(C(=O)NC2CCCC2)CCCCC1` reads 2.2	-0.06

(cont.)
The line under a structure holds: AID504770	Ba CapD inh
Cc1ccc(S(=O)(=O)NC2=NCN(C(C)C)CN2)cc1
    -1	x
C/C(=N\NC(=O)c1ccc(NS(=O)(=O)c2ccc(Br)cc2)cc1)c1ccc(C)o1
    1.2	x
CN1CCC(N(C)C(=O)c2ccc(Cl)c(S(=O)(=O)Nc3ccccc3C(=O)N(C)C3CCN(C)CC3)c2)CC1
    -0.35	x
CN(C)c1ccc(NC(=O)COc2cccc3ccccc23)cc1
    0.55	0.65
O=C(CSc1nc2ccccc2[nH]1)Nc1ccc(N2CCOCC2)cc1
    -1	0.27
c1cncc(C2CCCCN2)c1 (centres undefined)
    x	0.72
CC(C)Cn1c(N)c(C(=O)COC(=O)[C@H](C)N=C2NS(=O)(=O)c3ccccc32)c(=O)n(C)c1=O
    -0.15	x
COc1ccc(CC(=O)N2CCN(c3ccccc3)CC2)cc1
    0.65	0.65
N#CC(C#N)=NNc1cc(Cl)cc(Cl)c1
    x	-0.92
Cc1c(C(=O)NCc2cccnc2)sc2ncn(CC(=O)N3CCCCC3C)c(=O)c12 (centres undefined)
    -0.05	1
COc1ccc(Cl)cc1S(=O)(=O)N1CCC(C(N)=O)(N2CCCCC2)CC1
    -1.2	-0.63
Cc1nn(-c2ccccc2)c2sc(C(=O)N(C)c3ccccc3)cc12
    -0.85	x
COc1cc(OC)nc(-c2sc3ccccc3c2OCc2ccc(C#N)cc2)n1
    x	0.03
O=C(OCCN1CCCCC1)c1cccs1
    -0.8	0.21
CCc1nnc(NC(=O)CCC(=O)N2CCC(O)CC2)s1
    0.3	x

The line under a structure holds: AID504770	Ba CapD inh
Cc1cc(C)c(-c2nnc(NC(=O)c3cccs3)s2)c(C)c1
    2.5	0.22
O=C(Nn1cnnc1)c1ccc(Cl)cc1
    1.4	x
Cc1ccc(NC(=O)C(C)Sc2nnc(C3CCCCC3)n2C)cc1 (centres undefined)
    1.5	x
COc1ccc(C)cc1NS(=O)(=O)c1cccs1
    -1.4	0.065
Cc1cccc(-n2sc3c(c2=S)-c2cc(Cl)ccc2N(C)C3(C)C)c1
    x	-0.21
NC1(N)OC(CN2C(=O)c3ccccc3C2=O)CS1 (centres undefined)
    -0.7	0.01
O=C1CSc2nc3ccccc3n21
    x	-0.21
Cc1cc2c3c(c1)C1C=CCC1C(C(=O)O)N3CC1CC=CC21 (centres undefined)
    2.8	0.44
Fc1ccc(NC(=S)NC2CC2)cc1Cl
    -1.2	-0.08
COc1ccc(C2SCCN2C(=O)c2cc3ccccc3oc2=O)cc1Br (centres undefined)
    x	0.51
CC(SC1CCCC1)C(=O)Nc1ccnn1C(C)C (centres undefined)
    -0.65	x
CCOC(=O)COc1cc(=O)[nH]c2ccc(OC)cc12
    0.4	x
CC1=N/C(=C\c2cccs2)C(=O)O1
    -0.05	-1.2
CC1(C)Cc2c(C#N)c(N)sc(=S)c2CO1
    0.1	-0.16
CC(C)(CC(=O)O)CC(=O)Nc1ccc2c(c1)OCO2
    0	0.1

The line under a structure holds: AID504770	Ba CapD inh
O=C(Nc1ccc(-n2cnnn2)cc1)C1c2ccccc2Oc2ccccc21
    -1.7	x
Clc1ccc(-c2nc(N3CCCCC3)c3oc4ccccc4c3n2)cc1
    x	-0.14
Cc1nc2c(c3nc(C#N)c(C#N)nc3n2Cc2ccco2)c2nc3ccccc3n12
    0	x
O=C(NCCCN1CCCC1)c1cc2cc3ccc(Cl)cc3nc2o1
    0.75	-0.33
CN(C)c1ccc(C=C(c2ccc(N)cc2)c2ccc(N)cc2)cc1
    x	-1.1
CCSc1nnc(NC(=O)C2Cc3ccccc3CN2C(=O)c2ccco2)s1 (centres undefined)
    -0.4	x
COc1ccc2c(c1)c(=O)c1ccccc1n2CC(=O)Nc1ccc(F)cc1Cl
    x	0.23
Fc1ccccc1Nc1ccc2ccccc2n1
    -0.4	57
Cc1ccc(/C(COc2ccccc2O)=N\O)cc1
    -0.7	0.66
COc1ccc(S(=O)(=O)NC(C)C)cc1
    -0.5	-0.44
NC(C(=O)O)C(O)c1ccccc1 (centres undefined)
    -0.35	5.5
N#Cc1nccnc1Sc1ccc(Cl)cc1
    x	-0.4
CCOC(=O)Cn1ncc2c3ccccc3n(CC(=O)OCC)c2c1=O
    -0.75	7.3
N#C/C(=C\NCc1ccco1)S(=O)(=O)c1ccc(Cl)cc1
    -1.1	-0.12
O=C(c1ccc(F)cc1)N1CCCCC(Sc2ccccn2)C1=O (centres undefined)
    0.05	x
NC(=O)c1sc2nc3c(c(-c4ccc(Cl)cc4)c2c1N)CCCCC3
    x	2.1
Cc1ccc(Cl)cc1-n1c(=O)cc(N2CC(C)OC(C)C2)[nH]c1=O (centres undefined)
    2.3	-0.78
Cc1ccc(CSc2n[nH]c(-c3ccc(C(C)(C)C)cc3)n2)cc1
    0.85	8.2

Screening data from PubChem.
